Rango dissoc inh – inhibition of RanGTP-driven Rango-importin beta dissociation; AID 540253; Potency, µM (top dose mostly 46.1 µM), inactives show at the highest dose activity change, negative = inhibition; O95149+P62826; Biochemical FRET Rango-importin beta, RanGTP-induced dissociation; actives 0.071% (n = 340,000); active means falling FRET ratio curve, often poorly fitted, with flat reads before Ran was added; inconclusive means other falling curves, or compound fluorescence or quenching; inactive means flat or rising ratio curve;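 note: potency is the fitted concentration of half-maximal effect; % of control where 0% means no effect; nearly all actives have a fitted effect of over 45% in size; -100% = wells without RanGTP and RCC1; the record marks most hits as doubtful in a second field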
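Compounds preincubate 5 min with complex of recombinant Rango and importin beta in PBS with 1 mM DTT. Ran (0.6 uM) loaded with 2 mM GTP plus 0.2 uM RCC1 starts dissociation; FRET is recorded 45 min later.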
Rango-impB inh – prevents formation of the Rango-importin beta complex. Q14974. Rango CFP/YFP FRET sensor + importin beta, 45 min. Potency, µM (series often up to 92.2 µM), without a hit: at the top dose inhibition of complex formation. actives 0.031% (n = 340,000). AID 540263; active = rising FRET ratio curve, often small or poorly fitted; inconclusive = mostly compound fluorescence or quenching in the first reads; inactive = flat curves in all reads;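 note: potency is the fitted concentration of half-maximal effect; 0% = DMSO wells and 100% = buffer wells lacking importin beta; nearly all actives have a fitted effect of over 15% in size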
Target sequence (Q14974 whole entry, looked up): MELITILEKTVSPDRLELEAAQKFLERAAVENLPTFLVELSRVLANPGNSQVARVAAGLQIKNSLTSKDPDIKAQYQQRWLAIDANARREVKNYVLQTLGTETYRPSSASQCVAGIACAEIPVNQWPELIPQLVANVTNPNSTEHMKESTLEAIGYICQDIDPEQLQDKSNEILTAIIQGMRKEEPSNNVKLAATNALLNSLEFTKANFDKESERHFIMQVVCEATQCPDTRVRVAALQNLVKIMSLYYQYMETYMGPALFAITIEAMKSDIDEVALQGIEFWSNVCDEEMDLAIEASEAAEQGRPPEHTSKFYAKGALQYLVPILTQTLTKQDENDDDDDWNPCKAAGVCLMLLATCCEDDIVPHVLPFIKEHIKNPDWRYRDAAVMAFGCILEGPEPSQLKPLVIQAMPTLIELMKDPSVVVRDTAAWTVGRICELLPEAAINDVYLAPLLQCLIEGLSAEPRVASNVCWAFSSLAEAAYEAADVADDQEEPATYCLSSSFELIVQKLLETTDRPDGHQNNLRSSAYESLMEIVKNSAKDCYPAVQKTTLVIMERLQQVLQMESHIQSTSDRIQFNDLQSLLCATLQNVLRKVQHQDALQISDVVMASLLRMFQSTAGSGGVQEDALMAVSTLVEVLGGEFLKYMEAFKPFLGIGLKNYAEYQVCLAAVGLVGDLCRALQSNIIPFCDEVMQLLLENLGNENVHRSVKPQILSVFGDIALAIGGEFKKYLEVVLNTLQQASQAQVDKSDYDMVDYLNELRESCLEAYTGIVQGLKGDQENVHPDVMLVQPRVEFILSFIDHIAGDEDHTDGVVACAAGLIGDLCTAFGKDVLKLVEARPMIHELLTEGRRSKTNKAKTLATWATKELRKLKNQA
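FRET biosensor (snurportin 1 IBB flanked by EYFP and cerulean), 50 nM, with compound 5 min, then 0.125 microM importin beta in PBS, 1 mM DTT, 0.02% Tween-20, 0.1% BSA. CFP/YFP ratio read after 45 min at room temperature; pre-read flags interference.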
GLA inh pH 4.5 – blocks human alpha-galactosidase A at pH 4.5; activity change, negative = inhibition, % at 105 µM; 230,000 tested, under 10 active; purified enzyme, 4-MU-alpha-Gal fluorescence, pH 4.5; P06280; AID 1467; inconclusive = small, poorly fitted or top-dose-only inhibition, or a rising curve; inactive = flat fitted curve, though single readings scatter; no compound was filed as active;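 note: 0% = full activity with enzyme and -100% = basal without enzyme; dose as in the result columns while the protocol names 77 µM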
miR-21 reporter – raises the signal of a miR-21 reporter; HeLa miR-21 FLuc reporter, luciferase, 48 h; Potency, µM (titrated, usually from 38.3 µM), for inactives: at the top dose reporter change, positive = more light; 340,000 tested, under 10 active; AID 2288; active = well fitted rising curve with a large enough effect; inconclusive = small, poorly fitted or top-dose-only effect; inactive = no such curve, though single readings can be large or run the other way;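 note: % of control where 0% means no effect; miR-21 action dims this reporter so a rising signal means less miR-21 action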
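HeLa miR-21-FLuc reporter line, endogenous miR-21; 2000 cells/well in DMEM/10% FBS; compound titration up to ~40uM final, 48 h, 37 degree Celsius; luciferase detection reagent, 15 min lysis, CCD luminescence.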
An asterisk follows results filed as active; ? = inconclusive; . = not tested or not shown; & = joins results of further samples. An excerpt; rates above refer to the full screens.

SMILES	Rango dissoc inh	Rango-impB inh	GLA inh pH 4.5	miR-21 reporter
CC(SCc1ccccc1)C(=O)Nc1ccccc1Br (stereo not drawn)	-7%	-2.5%	.	-25%
CC(=O)NC(=S)Nc1ccc(N2CCOCC2)c(S(=O)(=O)Nc2cc(Cl)ccc2Cl)c1	21%	-5.1%	-9	-7%
COC(C(=O)NCc1ccc(C)cc1)c1ccccc1 (stereo not drawn)	12%	3.0%	5	-2%
COC(=O)c1cc(C)sc1NC(=O)CC1Nc2ccccc2NC1=O (stereo not drawn)	-8%	-1.9%	15	-1%
Cc1cccc(N2CCN(C(=O)c3ccc4nc[nH]c4c3)CC2)c1C	5%	-0.9%	6	-1%
Cc1ccc(SCCNC(=O)/C=C/c2ccccc2Cl)cc1	2%	7.0%	3	-7%
Cn1c(SCC(=O)N2CCOCC2)nnc1-c1ccc(NC(=O)c2ccccc2F)cc1	14%	-2.7%	-8	-7%
COc1cccc(/C=N/NC(=S)Nc2cccc(S(=O)(=O)N(C)C)c2)c1	28%	0.1%	-9	-7%
CCn1cc(S(=O)(=O)Nc2ccc(Cl)cc2F)cn1	11%	-0.7%	.	-6%
O=C(COc1ccc([N+](=O)[O-])cc1)NCc1cccnc1	7%	-1.5%	-3	-2%
Cc1cc(S(=O)(=O)N(C)CCc2ccccc2)ccc1-n1cnnn1	1%	-8.1%	-3	-13%
COc1ccc(C(=O)NNC(=O)C2CC=CCC2)cc1 (stereo not drawn)	1%	-2.0%	.	-33%
CC1CCCCC1NC(=O)c1cccc(N2C(=O)C3C4C=CC(C4)C3C2=O)c1 (stereo not drawn)	0%	-4.5%	.	11%
CCOc1cc(-c2ccccc2)nc(N)n1	-8%	-2.9%	-5	-42%
CCCCCCSc1cccc(-c2nc3ccccn3c2NCc2ccccc2)c1	?	?	.	.
CCCn1c(N)c(C(=O)COc2ccc(Br)cc2F)c(=O)n(C)c1=O	1%	0.0%	6	27%
COc1ccc(C=C(C(C)=O)C(C)=O)cc1OC	1%	-0.8%	5	-8%
CCOC(=O)c1c(NC(=O)C2c3ccccc3Oc3ccccc32)sc(C(N)=O)c1C	?	-2.3%	-2	-3%
Clc1ccc(C2=CSC3=NCCN23)c(Cl)c1	6%	-4.2%	.	.
Cc1c(N=NC2=C(O)CC(C)(C)CC2=O)c(=O)n(-c2ccccc2)n1C	1%	-1.0%	6	-1%
C=Cn1ccnc1CC(O)c1ccc(OC)cc1 (stereo not drawn)	2%	3.7%	.	.
Cc1cc(=O)n2nc(N3CCC(C(=O)N4CCN(Cc5ccccc5)CC4)CC3)sc2n1	2%	-2.6%	2	-6%
CC1(C)CC(=O)N(CC(=O)NCc2ccccc2)c2ccccc2S1(=O)=O	15%	-3.1%	9	-3%
CCOC(=O)NC(=O)CSc1nc(-c2ccc(C)c(C)c2)cn1-c1ccccc1	4%	-0.7%	-14	-79%
Cc1cccc(CCNC(=O)C2CCC(=O)N(Cc3ccc(Cl)cc3)C2)n1 (stereo not drawn)	3%	6.1%	.	0%
C=CCSc1nc(Cc2ccc(Cl)cc2)nc2ccccc12	21%	-0.7%	-23	0%
COC(=O)C(Cc1ccccc1)NS(=O)(=O)c1ccccc1Br (stereo not drawn)	16%	-0.1%	7	-1%
CCCCOc1ccc(Cc2c(O)nc(SC)[nH]c2=O)cc1	4%	?	.	-3%
COc1ccc(Nc2ccc3ccccc3c2)cc1	-9%	-0.9%	.	.
Cc1nc2oc3ccc(F)cc3c(=O)c2cc1C(=O)O	-23%	0.1%	.	-36%
O=C(O)CC1CCC(=C(Cl)Cl)C1 (stereo not drawn)	11%	3.6%	11	-3%
CC(=O)c1ccc(S(=O)(=O)NCCC(=O)NCCc2c[nH]c3ccccc23)cc1	-7%	0.3%	.	.
Cc1ccc(NC(=O)c2sc3nc4c(c(-c5ccco5)c3c2N)CCC4)cc1	?	?	2	-14%
COc1cccc(N2CC(C(=O)NCc3n[nH]c(=O)c4ccccc34)CC2=O)c1 (stereo not drawn)	18%	-2.9%	.	.
O=C(N/N=C\c1ccc(CN(Cc2ccc(Cl)cc2)S(=O)(=O)c2ccccc2)o1)C(=O)Nc1ccc(F)cc1	-7%	0.2%	3	-23%
Cc1cc2cc(C)c(NCCNC(=O)c3ccccc3)nc2cc1C	8%	0.7%	13	-14%
COc1ccc(CN(C)C(=O)c2cccc(S(=O)(=O)N3CCc4ccccc43)c2)c(OC)c1	-7%	-1.0%	.	.
Nc1nc(-c2ccc(C(=O)O)cc2)cs1	-8%	6.7%	3	-1%
CC(=O)N/C(=C\c1ccccc1)C(=O)OCC(=O)N1CCCCCC1	3%	-0.1%	-11	-1%
Cn1cncc1COC(=O)c1ccc(Cl)cc1	11%	4.1%	.	2%
COC(=O)/C=C1\NC(=O)C(C)S1 (stereo not drawn)	10%	-1.6%	16	-3%
O=C(CN1C(=O)c2cccc3cccc1c23)NCC1CCCO1 (stereo not drawn)	-30%	?	1	-8%
O=S(=O)(/N=C(/Nc1cccc2ccccc12)c1ccccc1)c1ccccc1	-5%	4.6%	.	-12%
CCOc1ccc(CN2C(=O)c3ccccc3Sc3ccc(C(=O)NCCCN4CCOCC4)cc32)cc1	-2%	1.7%	.	16%&28%
Cc1ccccc1N1CC(C(=O)N2CCCCCC2)CC1=O (stereo not drawn)	16%	-1.0%	.	.
CCCNc1nc(Nc2ccc(C)c(Cl)c2)c2cnn(C)c2n1	-10%	-1.9%	.	11%
O=C(COc1ccc2c(-c3ccccc3)cc(=O)oc2c1)NCC1CCC(C(=O)O)CC1 (stereo not drawn)	14%	2.3%	.	-14%
CC(=O)c1cc(NC(=O)c2ccc(C)cc2)c(=O)oc1C	2%	-2.0%	-1	-9%
O=C(CSc1nnc(C2CC2)n1-c1ccccc1)NCCc1ccccc1	-1%	-2.6%	-1	-4%
CC(=O)c1ccc(OCCCN2CCCCC2)cc1	15%	4.7%	7	-1%
CC(=O)NC12CC3CC(C1)CC(C(=O)N(C)CC(=O)Nc1ccc(F)c(F)c1F)(C3)C2	20%	-1.5%	.	.
N#CC(=C1CCCC1)c1nc(-c2ccc(Cl)cc2)cs1	-3%	-0.2%	-3	-44%
COc1ccc2c(c1)[nH]c1c(=O)n(CCc3cnc[nH]3)cnc12	-1%	1.2%	-4	-9%
COc1ccc(CCNC(=O)C2CCN(S(C)(=O)=O)CC2)cc1OC	7%	-0.9%	7	-3%
COc1ccc(NS(=O)(=O)c2cc(NC(=O)c3ccc(=O)[nH]c3)ccc2N2CCOCC2)cc1	?	0.3%	7	-5%
O=[N+]([O-])c1cc(Cl)c2cccnc2c1O	2%	2.2%	3	?
CC1CCN(C(=S)NC2CC3CCC2C3)CC1 (stereo not drawn)	-8%	-3.3%	4	-32%
CCOC(=O)C1CCC(CN(Cc2ccccc2)S(=O)(=O)c2ccc([N+](=O)[O-])cc2)CC1 (stereo not drawn)	-19%	-2.5%	-4	-1%
COc1ncnc(-c2ccccc2)c1-c1ccccc1	0%	0.1%	.	.
CCOc1cc(C(=S)N2CCOCC2)ccc1OS(=O)(=O)c1ccc(OC)cc1	-8%	-0.2%	.	10%

Given with values ahead of the structure: five of the compounds above
Rango dissoc inh	Rango-impB inh	GLA inh pH 4.5	miR-21 reporter	smiles
-3%	-0.2%	-3	-44%	N#CC(=C1CCCC1)c1nc(-c2ccc(Cl)cc2)cs1
-1%	1.2%	-4	-9%	COc1ccc2c(c1)[nH]c1c(=O)n(CCc3cnc[nH]3)cnc12
7%	-0.9%	7	-3%	COc1ccc(CCNC(=O)C2CCN(S(C)(=O)=O)CC2)cc1OC
?	0.3%	7	-5%	COc1ccc(NS(=O)(=O)c2cc(NC(=O)c3ccc(=O)[nH]c3)ccc2N2CCOCC2)cc1
2%	2.2%	3	?	O=[N+]([O-])c1cc(Cl)c2cccnc2c1O

Continued:
SMILES	Rango dissoc inh	Rango-impB inh	GLA inh pH 4.5	miR-21 reporter
CCN(CC)c1ccc(N=Nc2ncn[nH]2)cc1	1%	2.1%	-10	-28%
Cc1nc2c(-c3ccccc3)c(C)nn2c(C)c1CC(=O)O	24%	1.5%	-5	0%
COc1ccc(S(=O)(=O)N2CCCCC2)cc1NC(=O)Cc1sc(C)nc1-c1ccc(F)cc1	6%	-0.6%	.	.
CC(NC(=O)/C(C#N)=C/c1ccc(N2CCOCC2)cc1)c1ccccc1 (stereo not drawn)	?	?	.	4%
COc1ccc(CCC(=O)NCCc2cn3c(C)csc3n2)cc1	-18%	-3.9%	2	-7%
COC(=O)c1oc2ccc(Br)cc2c1NC(=O)CN1CCN(C)CC1	36%	2.3%	.	.
O=C(CN1CCC(NC(=O)C2CCCCC2)CC1)Nc1ccccc1	9%	-3.9%	.	.
COc1ccc(OCCCC(=O)OC(C)C(=O)Nc2ccccc2[N+](=O)[O-])cc1 (stereo not drawn)	1%	-2.6%	.	.
O=C1c2ccccc2C(=O)N1CCSc1nncs1	18%	3.4%	6	-5%
CCOC(=O)COc1ccc(S(=O)(=O)N2CCc3ccccc3C2)cc1	10%	-2.9%	1	-4%
Clc1cccc(CN2CCC3CC2c2cc(N4CCCCC4)ccc23)c1 (stereo not drawn)	-11%	-1.1%	.	.
CCC1CCCCN1CCCNS(=O)(=O)c1ccc2c(c1)oc(=O)n2C (stereo not drawn)	-2%	0.7%	.	-1%
CCCCn1c(=O)c2ccccc2c2ccccc2c1=O	-6%	5.3%	3	1%
Cc1c2c([n+]3n1CCC3)CC(C)(C)CC2=O	-6%	-5.7%	5	3%
COc1ccc(C2OC(=O)CC2C(=O)NCc2ccccc2Cl)cc1OC (stereo not drawn)	33%	-3.4%	-6	-8%
CC/C(=N\O)c1ccc(OC)c(OC)c1	-3%	-0.4%	-8	-12%
CC(=O)NC(=S)NNC(=O)CCc1ccccc1	30%	?	6	-1%
Cn1c(=O)c(C(=O)CN2CCCc3ccccc32)c(N)n(Cc2ccccc2)c1=O	-22%	?	8	-7%
Cc1ccc(CSCc2ccc(C(=O)O)o2)cc1	-4%	-2.2%	.	-5%
Cc1ccc(OCC(=O)Nc2ccccc2Sc2ccccc2)c([N+](=O)[O-])n1	4%	0.5%	-6	-25%
COc1ccc(C(=O)Nc2cccc(OC(=O)c3ccco3)c2)cc1	-13%	0.2%	.	-8%
CCC(c1nnnn1Cc1ccco1)N(Cc1cc2cc(OC)ccc2[nH]c1=O)C1CCCCC1 (stereo not drawn)	-8%	-0.2%	-1	-11%
Cc1noc(C)c1S(=O)(=O)Nc1ccc(C(=O)NCCc2ccccc2)cc1	-8%	0.3%	-4	-10%
O=[N+]([O-])c1cccc(C=Nc2cccc3ccccc23)c1O	0%	-0.2%	.	1%
COc1ccc(Cc2nc3c([nH]2)c(=O)n(C)c(=O)n3C)cc1OC	?	1.8%	.	.
Cc1ccc(C)n1-c1ccc(C(=O)NC2CCN(Cc3ccccc3)CC2)cc1	6%	3.9%	2	10%
CCn1c(CNC(=O)c2ccccc2)nnc1SCC(=O)N1CCN(c2ccccc2)CC1	-17%	-3.1%	1	-9%
COC(=O)C1=C(N)Oc2cc(C)n(C)c(=O)c2C1c1ccc(Cl)cc1 (stereo not drawn)	1%	-2.0%	-15	-1%
COc1ccc(-c2cn3cccnc3n2)cc1Br	-17%	1.3%	?	-65%
COc1ccc(C(=O)NCC(=O)N/N=C/c2c(C)[nH]c3ccccc23)cc1OC	-6%	4.3%	3	-1%
COc1ccc(CCN=Cc2c(C)[nH]n(-c3ccc([N+](=O)[O-])cc3)c2=O)cc1OC	-2%	-1.0%	-9	2%
Cc1ccc(CCS(=O)(=O)c2ccc(C(C)(C)C)cc2)cn1	3%	1.1%	.	11%
CCCOc1ccc(CNC(=O)C2CCN(c3nn4c(=O)cc(C)nc4s3)CC2)cc1	1%	7.8%	.	0%&-7%
Cc1c(Br)c([N+](=O)[O-])nn1C(C)C(=O)N1CCc2ccccc2C1 (stereo not drawn)	8%	1.0%	.	-11%
O=C(COc1cc(=O)n2c(n1)SCCC2)c1ccccc1	0%	3.6%	-11	-22%

Source: PubChem (National Center for Advancing Translational Sciences (NCATS))
